# AF4-AF9 inh: inhibitors of human MLL-AF4/AF9 interaction; inhibition, % at 10 µM; AlphaScreen, biotin-AF4 peptide binding to FLAG-AF9; P42568; 350,000 compounds, 0.47% hits; AID 651704;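 active = every replicate reaching a set inhibition limit, whatever the replicate mean, cut at about 25% in these data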;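 note: 0% = plate neutral control median and 100% = total signal loss; the record names both 10 and 1 µM as test concentration; the first replicate is given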
# Target sequence (P42568 whole entry, looked up): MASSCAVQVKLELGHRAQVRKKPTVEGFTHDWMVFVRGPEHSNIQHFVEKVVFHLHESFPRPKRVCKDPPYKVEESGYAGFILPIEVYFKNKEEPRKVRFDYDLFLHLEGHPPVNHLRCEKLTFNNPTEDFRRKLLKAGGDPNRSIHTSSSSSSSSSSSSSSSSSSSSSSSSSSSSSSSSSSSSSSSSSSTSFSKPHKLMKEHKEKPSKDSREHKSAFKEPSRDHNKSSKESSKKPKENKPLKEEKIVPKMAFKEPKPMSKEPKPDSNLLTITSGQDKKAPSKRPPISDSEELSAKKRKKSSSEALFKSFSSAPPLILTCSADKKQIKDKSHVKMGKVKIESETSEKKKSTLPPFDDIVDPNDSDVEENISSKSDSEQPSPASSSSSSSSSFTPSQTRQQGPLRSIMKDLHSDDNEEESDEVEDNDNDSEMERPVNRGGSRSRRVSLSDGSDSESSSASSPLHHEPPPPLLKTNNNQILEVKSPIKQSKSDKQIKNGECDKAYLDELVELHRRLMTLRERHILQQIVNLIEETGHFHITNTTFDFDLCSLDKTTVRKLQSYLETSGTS
# The depositor's hits bear a star; & = joins results of further samples. Only part of the results is shown (hit frequency here may not be typical).
SMILES,AF4-AF9 inh
O=C(NCc1ccncc1)[C@@H]1CCCN1C(=O)[C@@H]1CCCN1C(=O)c1ccccc1,-3.0
COc1ccccc1C(=O)Nc1ccc2c(c1)C(=O)N(C)[C@@H]1CC[C@H](CC(=O)NCc3ccc(Cl)c(Cl)c3)O[C@@H]1CO2,-0.9
C[C@@H]1CN([C@H](C)CO)C(=O)c2cc(NC(=O)Nc3ccc4c(c3)OCO4)ccc2O[C@@H](C)CCCCO[C@H]1CN(C)Cc1ccncc1,10.6
N#Cc1cccc(-c2ccc3c(c2)[C@@H]2[C@@H](CCN2S(=O)(=O)c2ccccc2)[C@H](CO)N3)c1,1.2
Cc1ccc(S(=O)(=O)Nc2ccc3c(c2)C(=O)N([C@H](C)CO)C[C@H](C)[C@H](CN(C)S(=O)(=O)c2ccc(F)cc2)OCCCC[C@@H](C)O3)cc1,3.6
CO[C@@H]1CN(C)C(=O)c2ccc(NC(=O)Cc3ccccc3)cc2OC[C@@H](C)N(CC2CC2)C[C@H]1C,-0.9
Cn1c(NCc2ccncc2)nc2cc(-c3ccsc3)sc2c1=O,0.8
C[C@H]1CN([C@@H](C)CO)C(=O)Cc2cc(NC(=O)CCCCCC(=O)Nc3ccccc3N)ccc2O[C@H]1CN(C)Cc1ccccc1,-0.7
C[C@@H]1CN([C@H](C)CO)C(=O)c2cc(NS(=O)(=O)c3cn(C)cn3)ccc2O[C@H]1CN(C)Cc1ccccc1,-0.5
CCCCn1c(N)c(N(CCOC)C(=O)COC(=O)c2ccccc2NCCO)c(=O)[nH]c1=O,0.1
COc1ccccc1C#Cc1ccc2c(c1)O[C@@H](CN(C)C)[C@H](C)CN([C@@H](C)CO)S2(=O)=O,8.3
CC(C)(C)c1ccc(CC(=O)N2CCC2(C)C(=O)NCc2cccs2)cc1 (centres undefined),-2.8
CCCC(=O)Nc1ccc2c(c1)C(=O)N(C)C[C@@H](OC)[C@@H](C)CN(CCC(F)(F)F)[C@@H](C)CO2,8.5
C[C@H](CO)N1C[C@H](C)[C@H](CN(C)Cc2ccc3c(c2)OCO3)Oc2c(NS(=O)(=O)c3ccc(F)cc3)cccc2C1=O,8.0
COc1cccc(S(=O)(=O)N(C)C[C@@H]2Oc3ncc(C#CCC(C)C)cc3C(=O)N([C@@H](C)CO)C[C@@H]2C)c1,1.5
O=C(C1CCOCC1)N1[C@@H](CO)[C@@H](c2ccccc2)C12CN(Cc1cccnc1)C2,-1.1
Cc1ccc2ccccc2c1C(O)c1ncc(-c2cccc(F)c2)[nH]1 (centres undefined),4.4
N#C[C@H]1[C@H](c2ccc(C#Cc3ccccc3F)cc2)[C@@H](CO)N1C(=O)C1CCCCC1,-2.4
CCC(=O)Nc1ccc2c(c1)OC[C@@H](C)N(CC1CCOCC1)C[C@H](C)[C@H](OC)CN(C)C2=O,-2.7
Cc1ccc(S(=O)(=O)N(C)C[C@H]2OCCCC[C@@H](C)Oc3ccc(NC(=O)Nc4ccc(F)cc4)cc3C(=O)N([C@H](C)CO)C[C@H]2C)cc1,0.4
C[C@@H]1CCCCO[C@H](CN(C)S(C)(=O)=O)[C@H](C)CN([C@@H](C)CO)C(=O)c2cc(NS(=O)(=O)c3ccc(Cl)cc3)ccc2O1,-2.9
Cn1c(=O)c2cc(NC(=O)NCc3ccccc3)ccc2n1Cc1cccc(C(F)(F)F)c1,-3.5
COC(=O)[C@@]12C[C@@H](CC(=O)NCc3ccccc3)C(=O)N(Cc3ccco3)C1=CCC(C)(C)C2,2.9
Cc1noc(C)c1S(=O)(=O)Nc1ccc2c(c1)C(=O)N([C@H](C)CO)C[C@H](C)[C@@H](CN(C)S(=O)(=O)c1c(C)noc1C)OCCCC[C@H](C)O2,-6.1
CNC[C@H]1Oc2ccc(NC(=O)Nc3cccc4ccccc34)cc2CC(=O)N([C@H](C)CO)C[C@H]1C,0.2

# Next part:
SMILES,AF4-AF9 inh
CCCNC(=O)N1CC2(C1)CN(C(=O)COC)[C@H](CO)c1[nH]c3cc(OC)ccc3c12,-2.1
C[C@H]1CN([C@@H](C)CO)C(=O)c2cc(C#Cc3ccccc3F)cnc2O[C@H]1CN(C)S(C)(=O)=O,-0.2
C[C@@H]1CN([C@@H](C)CO)C(=O)c2cc(C#CCN(C)C)cnc2O[C@H]1CN(C)S(=O)(=O)c1cn(C)cn1,-7.2
CCC(=O)N1C[C@H]2[C@@H](c3ccccc31)[C@@H](CO)N2C(=O)Nc1ccccc1,-0.7
C[C@@H]1CN([C@@H](C)CO)C(=O)CCCn2nncc2CO[C@H]1CN(C)S(=O)(=O)c1cccc(F)c1,-4.1&-1.7&-1.8
CCCC#Cc1ccc([C@@H]2[C@@H](CO)N3C(=O)CN(C(=O)c4ccccc4)C[C@@H]23)cc1,2.0
CCCNC(=O)N1CC(=O)N2[C@H](C1)[C@@H](c1ccc(C#CCC3CCCC3)cc1)[C@@H]2CO,4.6
C[C@@H]1CN([C@@H](C)CO)C(=O)c2cc(Br)cnc2O[C@H]1CN(C)C(=O)c1ccccc1F,-0.5&-2.1&-2.1
O=C(c1cccnc1)N1CCCCN2[C@H](CO)[C@H](c3ccc(C#Cc4cccnc4)cc3)[C@H]2C1,-7.0
Cc1ccccc1-c1cc2nc(NCc3cccnc3)n(C)c(=O)c2s1,-0.1
C[C@@H]1CN([C@@H](C)CO)C(=O)Cc2cc(NC(=O)Nc3ccc(F)cc3)ccc2O[C@@H]1CN(C)C(=O)Nc1ccc2c(c1)OCO2,4.1
C[C@@H]1CCCCO[C@@H](CN(C)Cc2ccc(C(F)(F)F)cc2)[C@@H](C)CN([C@@H](C)CO)C(=O)c2cc(NS(=O)(=O)c3cccs3)ccc2O1,0.9
COc1cc(C(C)=O)cc(OC)c1O,-2.4
C[C@@H]1CN([C@@H](C)CO)S(=O)(=O)c2ccc(C3=CCCCC3)cc2O[C@@H]1CN(C)C(=O)CC1CC1,0.4
CCCNC(=O)N[C@H]1CC[C@H](CC(=O)NCCc2ccccc2)O[C@H]1CO,-3.8
CNC[C@H]1Oc2ccc(NC(=O)CCC(F)(F)F)cc2C(=O)N([C@@H](C)CO)C[C@@H]1C,-1.7
C#CCN1CC(COc2ccccc2)OCCS1(=O)=O (centres undefined),-2.3
CS(=O)(=O)Nc1ccc2c(c1)[C@H]1C[C@@H](CC(=O)NCCc3ccccc3)O[C@@H](CO)[C@H]1O2,1.0
CO[C@H]1CN(C)C(=O)c2cc(NC(=O)Nc3cccc(F)c3)ccc2OC[C@H](C)NC[C@@H]1C,-3.0
C/C=C/c1ccc([C@H]2[C@@H](CO)N(C(C)=O)[C@H]2CN(CCOC)C(C)=O)cc1,-0.5
COc1ccccc1-c1cc(NC=O)c2ncc(-c3ccc(F)cc3)n2c1,-4.3
C[C@@H]1CN([C@@H](C)CO)C(=O)c2cc(NC(=O)Nc3cccc4ccccc34)ccc2O[C@H]1CN(C)C(=O)NC1CCCCC1,0.0
C[C@@H]1CN([C@@H](C)CO)S(=O)(=O)c2ccc(-c3ccccc3)cc2O[C@H]1CN(C)Cc1ccncc1,7.1
CC(C)NC(=O)N[C@H]1CC[C@@H](CC(=O)NC2Cc3ccccc3C2)O[C@H]1CO,0.4
C[C@@H]1CN([C@H](C)CO)C(=O)c2cc(NC(=O)Nc3ccc4c(c3)OCO4)ccc2O[C@H]1CN(C)C(=O)Nc1cccc2ccccc12,1.8

# (more compounds)
SMILES,AF4-AF9 inh
O=C(C[C@@H]1CC[C@@H](NC(=O)Nc2ccc(F)cc2)[C@@H](CO)O1)NCCN1CCCC1,-4.1
COc1cccc(S(=O)(=O)N[C@@H]2CC[C@H](CC(=O)NCc3ccc(Cl)cc3)O[C@H]2CO)c1,1.5
Cc1noc(C)c1NC(=O)N(C)C[C@@H]1Oc2ccc(NS(=O)(=O)c3cn(C)cn3)cc2C(=O)N([C@@H](C)CO)C[C@H]1C,-1.9
CCCNC(=O)N1CC2(CN(C(=O)C3CCCC3)C2)c2c([nH]c3cc(OC)ccc23)[C@@H]1CO,-1.5
N#C[C@H]1[C@H](c2ccccc2-c2ccc(F)cc2)[C@@H](CO)N1C(=O)NC1CCCC1,2.1
C[C@@H]1CN([C@H](C)CO)S(=O)(=O)c2ccc(Br)cc2O[C@@H]1CN(C)Cc1cncnc1,-1.1
C[C@@H]1CN([C@@H](C)CO)C(=O)c2cc(-c3cccc(C#N)c3)cnc2O[C@H]1CN(C)C(=O)c1cnccn1,-3.3
O=C(Cc1cccnc1)N1[C@@H]2CNc3ccccc3[C@@H]2[C@@H]1CO,1.1
CCS(=O)(=O)N1[C@H](CO)[C@H](c2ccc(C#Cc3ccccc3F)cc2)[C@@H]1C#N,2.6
CCOC(=O)[C@]12CCC=C1N(Cc1ccco1)C(=O)[C@H](CC(=O)NCC13CC4CC(CC(C4)C1)C3)C2,1.8
NCC[C@H]1CC[C@@H](NC(=O)C2CCC2)[C@@H](CO)O1,-0.1
C[C@@H]1CN([C@@H](C)CO)C(=O)c2cccc(NC(=O)Nc3ccccc3)c2O[C@@H]1CN(C)C(=O)Nc1ccccc1,6.1
C[C@H]1CN([C@@H](C)CO)C(=O)c2cc(NS(=O)(=O)c3ccc(F)cc3)ccc2O[C@H]1CN(C)Cc1ccccc1,3.5
C[C@H]1CN([C@@H](C)CO)C(=O)c2cc(C#Cc3ccccn3)cnc2O[C@H]1CN(C)Cc1cccnc1,-4.3
Cc1noc(C)c1NC(=O)Nc1ccc2c(c1)C(=O)N([C@@H](C)CO)C[C@H](C)[C@@H](CN(C)C(=O)Nc1c(C)noc1C)O2,0.1
Cc1noc(C)c1S(=O)(=O)Nc1ccc2c(c1)C(=O)N([C@H](C)CO)C[C@H](C)[C@H](CN(C)CC1CCCCC1)OCCCC[C@@H](C)O2,-1.4
CN(C)c1ccc2c(c1)[C@@H]1C[C@@H](CC(=O)NCc3ccncc3)O[C@@H](CO)[C@@H]1O2,1.8
Cc1ccc(S(=O)(=O)N(C)C[C@@H]2OCCCC[C@H](C)Oc3ccc(NC(=O)Nc4ccc5c(c4)OCO5)cc3C(=O)N([C@@H](C)CO)C[C@H]2C)cc1,-0.4
C/C=C/c1ccc([C@H]2[C@@H](CO)N(C(=O)C3CCC3)C23CN(C(=O)NC(C)C)C3)cc1,0.6
COc1ccc(CN(C)C[C@H]2Oc3ccc(NC(=O)CCC(F)(F)F)cc3CC(=O)N([C@@H](C)CO)C[C@H]2C)cc1,1.4
O=C(c1cccnc1)N1CC(=O)N2[C@H](C1)[C@H](c1ccc(C#CCC3CCCC3)cc1)[C@@H]2CO,20.1
CS(=O)(=O)N1CC(=O)N2[C@H](C1)[C@H](c1ccc(Br)cc1)[C@@H]2CO,-0.2
COc1ccc2c3c([nH]c2c1)[C@H](CO)N(C(=O)Cc1ccccc1)CC31CCN(C(=O)Nc2ccccc2F)CC1,4.0
C[C@@H]1CN([C@H](C)CO)C(=O)c2cc(NC(=O)C3CCCCC3)ccc2O[C@H]1CN(C)S(C)(=O)=O,1.3
C[C@H](CO)N1C[C@H](C)[C@@H](CN(C)Cc2cccc(C(F)(F)F)c2)OCc2cnnn2CCCC1=O,4.7&2.3

# Among those listed so far, these have a furan ring, fused or not:
SMILES,AF4-AF9 inh
COC(=O)[C@@]12C[C@@H](CC(=O)NCc3ccccc3)C(=O)N(Cc3ccco3)C1=CCC(C)(C)C2,2.9
CCOC(=O)[C@]12CCC=C1N(Cc1ccco1)C(=O)[C@H](CC(=O)NCC13CC4CC(CC(C4)C1)C3)C2,1.8

# Additional compounds
SMILES,AF4-AF9 inh
COc1cccc(-c2cccc(-c3nc(C(=O)NCC(F)(F)F)cc4c3[C@@H](CCO)N([S@](=O)C(C)(C)C)C4)c2)c1,7.0
CN1CCN(C(=O)C[C@H]2C[C@H]3c4cc(NC(=O)CC5CC5)ccc4O[C@H]3[C@H](CO)O2)CC1,-14.0
CCc1nc2ccc(C(=O)NCCCn3ccnc3)cn2c1N(C)C(=O)c1cccc(OC)c1,0.4
C[C@H](O)C#Cc1ccc2c(c1)O[C@@H](CN(C)Cc1ccncc1)[C@H](C)CN([C@H](C)CO)S2(=O)=O,2.1
CN(C)CCCNC(=O)C[C@H]1C=C[C@H](NS(=O)(=O)c2ccc(F)cc2)[C@H](CO)O1,-0.4
CC(C)NC(=O)Nc1ccc2c(c1)C(=O)N([C@@H](C)CO)C[C@@H](C)[C@H](CN(C)S(=O)(=O)c1ccc(Cl)cc1)OCCCC[C@@H](C)O2,1.7
C[C@@H]1CN([C@@H](C)CO)C(=O)c2cccc(NC(=O)C3CCOCC3)c2O[C@@H]1CN(C)S(=O)(=O)c1ccc(F)cc1,-3.1
C[C@H]1CN([C@@H](C)CO)S(=O)(=O)c2ccc(C#Cc3ccncc3)cc2O[C@@H]1CN(C)C(=O)C1CCOCC1,-1.2
Nc1[nH]c(C(=O)c2ccccc2)c(-c2ccccc2[N+](=O)[O-])c1C(=O)NCCc1c[nH]c2ccccc12,-4.0
O=C(C[C@H]1CC[C@@H]2[C@H](COC[C@@H](O)CN2Cc2cccc(-c3ccncc3)c2)O1)N1CCCCC1,0.5
OC(c1cccc(Cl)c1)c1ncc(-c2cccc(C(F)(F)F)c2)[nH]1 (centres undefined),9.3
Cc1ccc2nc(-c3ccc(C#N)cc3)c(Cc3ccccc3C(F)(F)F)n2c1,0.4

# Looked up by structure from the list above:
SMILES,AF4-AF9 inh
C[C@H](O)C#Cc1ccc2c(c1)O[C@@H](CN(C)Cc1ccncc1)[C@H](C)CN([C@H](C)CO)S2(=O)=O,2.1
Cc1ccc2nc(-c3ccc(C#N)cc3)c(Cc3ccccc3C(F)(F)F)n2c1,0.4

# A second format for 4 compounds above:
molecule | AF4-AF9 inh
Cc1ccc2nc(-c3ccc(C#N)cc3)c(Cc3ccccc3C(F)(F)F)n2c1 | 0.4
CN1CCN(C(=O)C[C@H]2C[C@H]3c4cc(NC(=O)CC5CC5)ccc4O[C@H]3[C@H](CO)O2)CC1 | -14.0
C[C@@H]1CN([C@@H](C)CO)C(=O)c2cccc(NC(=O)C3CCOCC3)c2O[C@@H]1CN(C)S(=O)(=O)c1ccc(F)cc1 | -3.1
CC(C)NC(=O)Nc1ccc2c(c1)C(=O)N([C@@H](C)CO)C[C@@H](C)[C@H](CN(C)S(=O)(=O)c1ccc(Cl)cc1)OCCCC[C@@H](C)O2 | 1.7
